Rce1 inh – blocks yeast Ras-converting enzyme | Q03530 | yeast membranes, quenched prenylated peptide cleavage fluorescence | calls only | actives 0.27% (n = 290,000);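 active means fall in fluorescence gain of 50% or more versus controls, with final raw signal at or below 3038400; inconclusive means same 50% fall but final raw signal above 3038400; inactive means fall in fluorescence gain under 50%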;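 further: plate controls were neutral control wells for no effect and wells lacking membranes for full effect; tested at 10 µM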
CSC inhib – cancer stem cell inhibition. cancer stem cell-like cells viability, luminescence. inhibition, % at 7.5 µM. actives 1.1% (n = 300,000);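 active means mean at 75% or more and at least half the replicates too; inconclusive means mean and replicates disagree; tested in HMLE shEcad cells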;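 further: 0% = median of negative and 100% = median of positive control wells; the first replicate is given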
PABP FP inh – blocks human PABP binding to poly(A) RNA; P11940; fluorescence polarization; inhibition, % at 35 µM; actives 1% (n = 290,000);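 active means 50% or more with normal probe brightness, or confirmed in later tests; inconclusive means above 50% with abnormal brightness, or retests that disagree; inactive means below 50% or failed in later tests; about a fifth of its hits are not listed in these tables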;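 further: calls also rest on retests at 20 µM and on dose response follow-up; controls were probe without protein and protein plus probe with vehicle; some compounds called inactive have numbers as strong as hits; many hits fall short of the cut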
Target sequence (P11940 whole entry, looked up): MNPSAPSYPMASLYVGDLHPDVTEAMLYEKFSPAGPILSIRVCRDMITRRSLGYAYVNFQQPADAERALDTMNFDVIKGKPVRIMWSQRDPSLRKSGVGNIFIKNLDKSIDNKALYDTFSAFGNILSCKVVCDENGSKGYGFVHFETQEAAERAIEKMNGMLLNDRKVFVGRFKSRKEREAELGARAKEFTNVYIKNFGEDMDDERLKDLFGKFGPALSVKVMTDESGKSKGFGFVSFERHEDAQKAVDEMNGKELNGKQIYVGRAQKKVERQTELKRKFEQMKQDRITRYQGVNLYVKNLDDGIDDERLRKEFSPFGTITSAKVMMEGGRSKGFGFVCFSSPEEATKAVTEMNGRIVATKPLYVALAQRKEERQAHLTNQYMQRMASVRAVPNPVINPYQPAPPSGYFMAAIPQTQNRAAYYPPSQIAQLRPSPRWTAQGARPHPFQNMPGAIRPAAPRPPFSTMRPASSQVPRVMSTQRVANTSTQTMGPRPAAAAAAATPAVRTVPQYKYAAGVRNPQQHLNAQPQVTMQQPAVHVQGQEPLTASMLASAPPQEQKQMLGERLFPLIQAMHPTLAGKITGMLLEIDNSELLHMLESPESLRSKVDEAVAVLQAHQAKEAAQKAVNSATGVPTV
MT1-MMP act inh – blocks activation of human MT1-MMP | HT1080 RFP-PRO-GFP cells, GFP/RFP ratio fluorescence, overnight; percent of plate control window, DMSO zero | AID 651647 | actives 0.061% (n = 360,000) | GFP/RFP ratio change, % at 20 µM | P50281;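 active means GFP/RFP ratio change of at least 30% with cell ATP level not reduced by more than half and red fluorescence within 50% of control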; further: strong numbers were not always called active
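Assay system: HT1080 RFP-PRO-GFP cells. Benchmarks: DMSO vehicle wells and RFP-L50D-GFP reporter cell wells. Times: overnight cell settling, then overnight compound exposure, 37 °C, 5% CO2. Compound: 20 µM single dose, 1% DMSO. Read-out basis: GFP/RFP fluorescence ratio.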
HIV Env fusion – HIV envelope-mediated fusion inhibition; AID 651610; inhibition, % at 12.3 µM; actives 1.1% (n = 360,000); HeLa-JRFL Env/CEM21 cell fusion, luciferase;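 active means mean replicate inhibition score of at least 50 and every replicate individually at or above 50; inconclusive means only one of the two criteria met; inactive means mean below 50 and not all replicates reaching 50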;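 further: 0% = plate neutral controls and 100% = maraviroc near 300 nM; one replicate is shown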
Yeast UUG start – alters start codon recognition fidelity in yeast. AID 602363. activity score, % at 18.7 µM. actives 0.13% (n = 350,000). S. cerevisiae UUG-firefly luciferase reporter, luminescence/redox ratio;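 active means replicate mean at a twofold rise or more, about +100% in these data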;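 further: firefly luciferase made from a UUG start codon reports start codon fidelity; reporter light over untreated wells divided by growth signal over untreated wells; some hits fall short of that in this replicate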
eIF4H inh – inhibitors of RNA binding by human eIF4H; Q15056; eIF4H fluorescence polarization binding assay; inhibition, % at 35 µM; actives 0.94% (n = 290,000);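 active means 50% or more with normal probe brightness, or confirmed in later tests; inconclusive means above 50% with abnormal brightness, or retests that disagree; inactive means below 50% or failed in later tests; about a fifth of its hits are not listed in these tables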;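 further: calls also rest on retests at 20 µM and on dose response follow-up; 0% = protein and probe with vehicle and 100% = probe without protein; strong numbers were not always called active; many hits fall short of the cut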
eIF4H inh retest – further read-out of eIF4H inh, marked with its call; inhibition, %; compound at 20 µM; confirmation average;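 mean of two retest wells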
PABP FP inh retest – also measured in PABP FP inh; calls as there; inhibition, %; compound at 20 µM; confirmation repeats;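 mean of two retest wells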
MT1-MMP act inh RFP – second read-out of MT1-MMP act inh, no call of its own (marks repeat the call); RFP signal change, %; measured here: RFP expression control read;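 0 = vehicle wells; hits needed this value within 50% of zero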
* marks the source's active call; other numbers are inactive results; i = inactive; ? = inconclusive; · = not tested or not shown; + = active, no number. The list is partial; count on the stated rates, not on these rows.

SMILES	Rce1 inh	CSC inhib	PABP FP inh	MT1-MMP act inh	MT1-MMP act inh RFP	HIV Env fusion	Yeast UUG start	eIF4H inh	others
O=C(CCC(=O)c1cccs1)NNC(=O)c1ccccc1O	i	-6.2	·	-2.4	2.5	-17.7	11.8	·
CN(NC(=O)COc1ccccc1)C1=NS(=O)(=O)c2ccccc21	i	-12.5	-10.5	-5.5	1.2	1.2	·	-8.6
COc1ccc(CCNC(=O)c2nn(C)c3c2CS(=O)(=O)c2ccccc2-3)c(OC)c1	i	-12.2	-7.3	6.7	-9.6	6.1	-8.7	-11.0
FC(F)Oc1ccc(/C=N/NC(=S)Nc2cc(C(F)(F)F)ccc2Cl)cc1	i	-7.5	-1.0	0.5	6.8	-147.2	-17.3	-7.1
COc1ccc(CN(C(=O)c2ccccc2OC)C2CCS(=O)(=O)C2)cc1 (stereo not given)	·	-9.8	-7.2	-3.5	5.5	-0.5	-2.8	2.5
O=C(Nc1cccn(Cc2c(Cl)cccc2Cl)c1=O)c1c(Cl)cccc1Cl	i	2.7	0.1	-12.9	-15.2	-24.1	-23.0	-9.7
CCCCCCCC(=O)Nc1cc(C(=O)NCc2ccc(C)cc2)ccc1N1CCC2(CC1)CC(c1cccc(Br)c1)=NO2	i	-18.1	·	6.4	6.2	-2.8	-13.4	·
OC[C@@H]1CN(Cc2ccncc2)C[C@H](n2cnc3c(N4CCOCC4)ncnc32)O1	·	·	·	-2.0	-2.1	6.4	-19.1	·
OCC[C@@H]1C[C@H](O)[C@@H](O)[C@]2(CCc3ccccc3O2)O1	i	6.6	-2.6	0.7	4.5	17.7	-23.7	-2.5
CCn1c(SCC(=O)c2ccc(Cl)s2)nnc1-c1cccs1	i	26.2	1.8	-10.1	-6.2	·	-44.2	-7.6
COc1cc(C(=O)N2CCc3ccccc32)cc(OC)c1OC	i	-14.7	1.1	1.0	1.1	7.3	-17.3	-2.4
Cn1c(=O)c2c(ncn2CC(=O)N/N=C/C=C\c2ccccc2[N+](=O)[O-])n(C)c1=O	i	-1.9	5.4	·	·	·	·	2.1
CCCC(=O)Nc1ccc(N2CCCCC2)cc1	i	-6.9	-1.0	1.2	3.0	·	-12.6	-9.5
O=C(CSc1n[nH]c(=O)[nH]c1=O)N/N=C/c1ccccc1	i	6.0	15.9	2.2	3.6	-3.6	·	-8.1
COc1ccc(Nc2nc(-c3cccc([N+](=O)[O-])c3)nc3ccccc23)c(OC)c1	i	·	36.3	-1.8	1.7	13.9	·	-0.8
O=C1NC(=O)C2(COC3(CCCC3)OC2)S1	i	-12.2	2.7	-2.5	4.3	-133.2	-4.2	-1.8
COc1cc(OC)cc(C(=O)N/N=C/c2ccc(OC)c(COc3ccc4ccccc4c3)c2)c1	i	22.7	0.5	7.1	-6.3	·	8.1	-9.0
O=C(NCc1nc2ccccc2[nH]1)C1=C[C@@H](c2ccc(C(F)(F)F)cc2)C[C@@H](OCc2ccc(CO)cc2)O1	i	-10.3	·	5.8	-0.4	5.8	-5.7	·
COc1ccc(NC(=O)c2oc3ccccc3c2NC(=O)c2ccco2)cc1	i	·	-5.4	2.8	4.1	·	·	7.1
Cc1cc(NC(=O)COC(=O)C2CC(=O)N(c3ccc(C)c(Cl)c3)C2)no1 (stereo not given)	·	-4.9	-7.0	0.9	2.0	12.5	-18.7	-5.2
O=C(NCCO)/C(=C\c1ccco1)NC(=O)c1cccs1	i	·	-12.6	-0.2	3.2	6.5	·	-3.8
COc1ccc(S(=O)(=O)N2CCOC2CNC(=O)C(=O)NCCc2ccc(OC)c(OC)c2)cc1 (stereo not given)	i	1.2	-3.2	3.2	-14.1	·	·	-4.0
Cc1ccc(C(C)NC(=O)c2ccncc2)c(C)c1 (stereo not given)	i	-7.6	-5.6	5.2	-4.3	-3.9	-16.1	-2.4
CC1(c2nnc(-c3cccc(Cl)c3)o2)CC(c2ccccc2)=NO1 (stereo not given)	i	10.9	·	1.7	6.0	21.0	-7.3	·
O=c1oc2ccccc2cc1C1=Nn2c(nnc2-c2cccnc2)SC1	i	-10.8	0.2	0.7	-1.5	?	-11.8	-1.6
Cc1c(Cc2ccccc2)sc(NC(=O)C(C)(C)C)c1C(N)=O	i	18.3	-4.0	-6.9	-7.3	2.5	·	3.0
CCCCCC1C(C(=O)OCC)C(=O)NC1(C(=O)OCC)C(=O)OCC (stereo not given)	·	·	·	1.7	-1.3	10.6	-9.9	·
Cc1nnc(SCC(=O)N2CC(=O)Nc3ccccc32)n1Cc1ccccc1	i	-8.7	-4.6	5.3	1.2	·	-11.2	3.4
O=C(CN1CCN(S(=O)(=O)c2ccccc2)CC1)Nc1ccccc1C(=O)NC1CC1	·	0.1	·	-0.5	0.5	·	-5.5	·
Cc1ccc(S(=O)(=O)NCc2ccc3c(c2)cc(C)n3C)cc1	i	-7.0	4.3*	40.0	50.9	-2.4	-6.8	57.9*	eIF4H inh retest=91.2*;PABP FP inh retest=82.6*
CC(C)NS(=O)(=O)c1ccc(CCC(=O)NCc2ccc3c(c2)OCO3)cc1	i	13.1	-0.3	0.9	0.9	-6.8	-8.7	0.8
Cc1c(C(=O)N2CC[C@@H](N3CCC(O)CC3)[C@H](O)C2)[nH]c2ccc(Cl)cc12	i	2.6	-9.8	-1.7	4.7	-2.6	-4.2	-7.8
O=C(NCCNc1ccc([N+](=O)[O-])cc1C(F)(F)F)c1cccc(F)c1	i	5.8	3.6	8.5	1.8	4.7	·	-6.8
COc1ccc(C[C@@H]2CN3C(=NC[C@@H]3C)N2C[C@H](C)NC(=O)c2ccc(C)c(Br)c2)cc1	i	13.1	-8.8	-1.5	-0.6	-76.6	5.4	-7.0
COC(=O)C1CCN(C(=O)CN2C(=O)NC(CCc3ccccc3)C2=O)CC1 (stereo not given)	i	-2.9	-7.6	0.7	-0.5	·	4.3	1.8
Cc1noc(C)c1S(=O)(=O)Nc1ccc2c(c1)C(=O)N([C@H](C)CO)C[C@H](C)[C@@H](CN(C)C(=O)Nc1ccc3c(c1)OCO3)O2	·	·	·	2.4	0.0	-9.6	3.2	·
CC1=NN=C(c2ccccc2)C(c2c[nH]c3ccccc23)N1O (stereo not given)	i	-13.2	-9.4	-1.8	1.3	11.6	·	-3.4
CCOc1cc(C(=O)Nc2cnccn2)cc(OCC)c1OCC	i	11.6	0.1	0.4	-1.2	-19.3	-4.8	0.7
CCN(CC)S(=O)(=O)c1ccc(N2CCOCC2)c(NC(=O)c2cc(Cl)c3c(c2)OCO3)c1	·	1.4	·	1.0	-4.3	·	-11.3	·
N#Cc1cc2c(=O)n3ccccc3nc2n(CCCN2CCOCC2)c1=O	i	-6.6	16.9	3.7	9.5	-14.3	-19.1	22.1
O=C(N/N=C/c1cccc(O)c1)c1ccc(COc2ccc3c(c2)CCC3)o1	i	5.8	0.6	1.4	-6.2	·	-4.5	-0.1
CSc1ncccc1C(=O)Nc1ncc(C)s1	i	1.3	9.2	10.0	5.7	-8.5	-16.1	-4.0
O=S(=O)(c1ccc(Cl)c(NC(=S)Nc2ccccc2N2CCOCC2)c1)N1CCOCC1	i	-2.7	-1.0	1.1	-0.4	0.5	·	-2.4
Cc1cc(C)n(-c2ccc(C(=O)NCC(c3ccco3)N3CCCC3)cc2)n1 (stereo not given)	·	20.3	·	-3.1	2.9	-1.0	-15.5	·
O=C(COC(=O)C12CC3CC(CC(O)(C3)C1)C2)N1CCN(S(=O)(=O)c2ccc(Cl)cc2)CC1	i	-17.7	-1.9	4.8	0.3	-29.2	16.2	-17.9
CCn1c(COc2cccc(C)c2)nnc1SCC(=O)NC1CCCC1	+	·	-7.1	-3.4	-3.4	-9.2	-10.9	2.1
COc1ccc(CN2CCN(c3ccccc3OC)CC2)cc1OC	i	-7.1	-2.3	2.9	5.4	3.4	-0.5	7.0
COc1ccccc1OCC(=O)Nn1c(=S)[nH]c2ncccc2c1=O	i	·	0.1	1.8	4.9	4.4	-1.6	-10.5
Cc1ccc(S(=O)(=O)N/N=C\c2cn(CC(N)=O)c3ccccc23)cc1	i	-16.9	5.1	1.9	1.9	-200.3	1.9	-2.3
COC(=O)CC1=C(C(=O)OC)C(c2cc(OC)c(OC)cc2OC)C(C#N)=C(N)O1 (stereo not given)	i	-7.5	20.3	-2.1	0.4	-35.0	-20.4	16.0
C/C(=N/NS(=O)(=O)c1ccc(C)cc1)c1cccc(NC(=O)c2cccc(Cl)c2)c1	i	·	0.4	2.6	-4.1	·	-7.1	-3.4
CCOC(=O)c1c(C)n(C)c2ccc(OCC(O)Cn3nc(C)cc3C)cc12 (stereo not given)	i	-10.5	-0.6	7.9	4.2	-44.1	-16.2	-2.6
COc1ccc(-c2nn(-c3ccccc3)cc2/C=N/NC(=O)c2ccc3c(c2)OCO3)cc1	i	9.3	3.8	·	·	·	·	-2.5
Cc1ccc(NC(=O)NC(=O)N(c2ccccc2)S(C)(=O)=O)cc1	i	-8.0	-15.1	1.3	4.8	-73.1	-12.9	7.2
Cc1cc(C(=O)NNC(=O)c2ccc(C)c([N+](=O)[O-])c2)c(C)o1	·	·	·	0.8	0.6	-12.6	-16.1	·
CC(=O)c1cn(C2OC(CO)C3OC(C)(C)OC32)c(=O)n(C)c1=O (stereo not given)	i	3.4	·	-1.1	3.2	-13.7	0.6	·
Cc1ccccc1OCCNc1cc(N2CCNCC2)ccc1[N+](=O)[O-]	i	-16.2	7.5	·	·	·	·	0.4
CCc1cc2c3c(c1)C(C)CC(C)(C)N3C(=O)C2=O (stereo not given)	i	-6.6	-5.5	6.5	5.9	-4.9	-21.7	8.0
CCOC(=O)C1(CCc2ccccc2)CCN(Cc2cc(OC)c(OC)cc2OC)CC1	i	-3.9	-7.9	-1.1	-5.5	11.2	0.3	0.5
O=C(NCCCN1CCC(Cc2ccccc2)CC1)C1CC(=O)N(C2CCCC2)C1 (stereo not given)	i	-1.9	-0.3	-0.4	-0.4	2.3	-24.5	0.5

New compounds follow.
SMILES	Rce1 inh	CSC inhib	PABP FP inh	MT1-MMP act inh	MT1-MMP act inh RFP	HIV Env fusion	Yeast UUG start	eIF4H inh	others
O=C(Nc1ccc(Cl)cc1)c1ccc2c(c1)OCO2	i	·	7.1	8.6	-0.7	i	-20.3	2.5
Cc1ccc(C(=O)/C=C/c2ccco2)c(O)c1	i	0.1	2.9	-4.9	0.6	·	-14.6	49.5
CCCC(=O)N1CCC1(C)C(=O)Nc1ccc(C)cc1 (stereo not given)	·	·	·	-4.1	-1.2	-55.8	-18.3	·
Cc1ccc(-c2nn(-c3ccc(F)cc3)cc2C(=O)N(C)CC(=O)Nc2ccc(N3CCOCC3)cc2)cc1	i	-5.7	·	3.0	1.3	·	5.9	·
CNC(=S)Nc1ccc(C23CC4CC(CC(C4)C2)C3)cc1	i	44.0	2.1	1.4	-2.5	4.2	-26.3	-2.5
CCCc1[nH]nc2c1C(c1ccc(OC(=O)N3CCOCC3)c(OC)c1)C(C#N)=C(N)O2 (stereo not given)	i	-9.2	-10.9	4.4	4.9	·	6.6	-13.1
CSc1nc(Cl)c(Cc2ccc(OC(C)C)cc2)c(N2CCOCC2)n1	i	-6.9	-1.5	7.6	-20.2	·	-2.4	0.4
